Marburg entry inh – inhibitors of Marburg virus binding or cell entry | AID 540276 | Marburg virus pseudotyped entry inhibition, cell reporter; control for the full effect not named in the record; about a third of the inactives were read at about 46 µM | Potency, µM (series often up to 37.8 µM), for the others: at the highest dose activity change, negative = inhibition, hits mostly inhibitors | hit rate 1.8% among 300,000; active = well fitted inhibition curve with a large enough effect; inconclusive = small, poorly fitted or top-dose-only effect, or effect the other way; inactive = flat fitted curve, though single readings scatter; tested in HEK293 cells; about a fifth of its hits are not listed in these tables; note: % is set by controls: 0 for no effect and ±100 for the full control effect; luciferase read-out
Cruzain inh Det – blocks cruzain activity in presence of Triton detergent; hit rate 0.43% among 200,000; purified cruzain, Z-FR-AMC fluorescence, 0.01% Triton; Potency, µM, for the others: max response, negative = inhibition, actives largely listed as inhibitors; active = well fitted curve in the direction sought with a large enough effect; inconclusive = small, poorly fitted or top-dose-only effect, or another doubt; inactive = no such curve, though single readings can be large; an effect the other way counts as inactive or inconclusive;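 note: plate controls were neutral wells for no effect and buffer without enzyme for full effect; nearly all actives have a fitted effect of over 40% in size; top concentration of the series not given in the record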
Target sequence (P25779 123-467 limits assumed): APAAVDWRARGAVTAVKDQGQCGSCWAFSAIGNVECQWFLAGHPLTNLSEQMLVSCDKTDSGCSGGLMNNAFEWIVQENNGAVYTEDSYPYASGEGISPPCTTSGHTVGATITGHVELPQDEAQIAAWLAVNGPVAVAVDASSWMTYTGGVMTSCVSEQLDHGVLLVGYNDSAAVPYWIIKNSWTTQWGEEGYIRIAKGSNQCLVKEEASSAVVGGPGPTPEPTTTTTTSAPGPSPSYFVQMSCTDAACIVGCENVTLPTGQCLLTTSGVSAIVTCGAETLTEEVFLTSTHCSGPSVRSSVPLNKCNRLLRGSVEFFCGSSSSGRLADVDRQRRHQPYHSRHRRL
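Steps: dispense cruzain (1.5 nM final) in acetate buffer pH 5.5 with DTT and 0.01% Triton X-100; pin-transfer compounds; incubate 15 min RT; add Z-FR-AMC (2 uM final); read fluorescence every 30 s, using the 60 s intensity change.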
2A StopGo – lowers the luciferase signal of an FMDV 2A StopGo reporter. human cells with a luciferase reporter of 2A StopGo recoding; control for the full effect not named in the record. Potency, µM (top dose mostly 57.9 µM), for the others: at the top dose signal change, negative = less light. hit rate 1.2% among 410,000; active = well fitted falling curve with a large enough effect; inconclusive = small, poorly fitted or top-dose-only effect; inactive = no such curve, though single readings can be large or run the other way; tested in HEK293T cells; note: % is set by controls: 0 for no effect and ±100 for the full control effect; nearly all actives have a fitted effect of over 45% in size; luciferase light after 4 h
NS1 inh – inhibitors of influenza NS1 protein function; AID 2326; S. cerevisiae slowed by influenza A NS1, growth recovery by OD600; Potency, µM (top dose mostly 46.1 µM), for the others: top-dose activity, positive = more growth; hit rate 0.4% among 270,000; note: actives are rising curves; nearly all actives have a fitted effect of over 50% in size
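A cell-based growth assay was used: compounds that relieve NS1-induced slow growth of budding yeast raise OD600. Assay medium was yeast nitrogen base with ammonium sulphate and -URA supplement, pH 6.0, with 2% galactose.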
Cruzain noTriton – cruzain (T. cruzi) inhibition without detergent; purified cruzain, Z-FR-AMC fluorescence, no detergent; Potency, µM, without a hit: max response, negative = inhibition, hits mostly inhibitors; hit rate 2.3% among 200,000; active = well fitted curve in the direction sought with a large enough effect; inconclusive = small, poorly fitted or top-dose-only effect, or another doubt; inactive = no such curve, though single readings can be large; an effect the other way counts as inactive or inconclusive;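 note: plate controls were enzyme without inhibitor for no effect and buffer without enzyme for full effect; nearly all actives have a fitted effect of over 40% in size; top concentration of the series not given in the record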
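Detergent-free condition (0.00005% Triton X-100) in acetate buffer pH 5.5 with DTT. 1.5 nM enzyme and compound were pre-mixed 15 min, then 2 uM Z-FR-AMC substrate added; reaction progress from fluorescence change between first and third reads (60 s).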
SARS PLpro yeast – SARS-CoV PLP inhibition in yeast; S. cerevisiae expressing SARS-CoV PLpro, growth rescue; control for the full effect not named in the record; Potency, µM (doses to about 32.9 µM), for the others: at the highest dose activity, positive = growth rescue; hit rate 0.19% among 330,000; note: 0% is about no effect; nearly all actives have a fitted effect of over 55% in size; growth read by luminescence after 48 h
Lassa entry inh – blocks Lassa virus binding to or entry into cells | Lassa virus pseudotype entry inhibition, cell reporter; control for the full effect not named in the record | Potency, µM (highest dose often 37.9 µM), inactives show at the highest dose activity change, negative = inhibition, most hits filed as inhibitors | hit rate 1.2% among 300,000 | AID 540256; active means well fitted inhibition curve with a large enough effect; inconclusive means small, poorly fitted or top-dose-only effect, or effect the other way; inactive means flat fitted curve, though single readings scatter; tested in HEK293 cells; note: % is set by controls: 0 for no effect and ±100 for the full control effect; nearly all actives have a fitted effect of over 50% in size; luciferase read-out
RE007 growth inh – less growth of the S. pombe RE007 Vpr strain; S. pombe RE007 Vpr strain, BacTiter-Glo ATP luminescence, 24 h; control for the full effect not named in the record; Potency, µM (top dose mostly 92.2 µM), inactives show top-dose activity change, negative = less growth; hit rate 0.21% among 360,000; active = well fitted falling curve with a large enough effect; inconclusive = small, poorly fitted or top-dose-only effect; inactive = no such curve, though single readings can be large or run the other way;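 note: % is set by controls: 0 for no effect and ±100 for the full control effect; nearly all actives have a fitted effect of over 50% in size; the assay follows cell death caused by Vpr and the record does not say whether a fall means rescue or toxicity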
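Fission yeast strain RE007, carrying one chromosomally integrated HIV-1 vpr copy, was seeded at OD 0.01 in PMG+AL medium with 23 nL pinned compound. After 24 h at 30 °C and 99% humidity, viability was read by BacTiter-Glo luminescence.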
An asterisk follows results filed as active; ? = inconclusive; · = no result given; & = joins results of further samples; [ ] = another dose, or the depositor's remark. Unless noted, calls come from the whole dose curve; as a rule, active means well fitted rising curve with a large enough effect; inconclusive means small, poorly fitted or top-dose-only effect; inactive means no such curve, though single readings can be large or run the other way. Potency is the fitted concentration of half-maximal effect. Random draw from the library; 4.7% or so of the library scored in one or more.

SMILES	Marburg entry inh	Cruzain inh Det	2A StopGo	NS1 inh	Cruzain noTriton	SARS PLpro yeast	Lassa entry inh	RE007 growth inh
COc1cccc(NC(=O)CN(C)C(=O)CSc2ccc3c(c2)OCCO3)c1	-8%	·	-5%	·	·	-1%	-8%	1%
C/C(=N\N1CCN(c2ccccc2)CC1)c1ccncc1	-25%	·	-2%	-2%	·	0%	?	-12%
CCOC(=O)CSc1nc(C(C)(C)C)cc(C(F)(F)F)c1C#N	?	-0.2%	-16%	7%	-3%	-7%	21%	4%
CCn1c(SCC(=O)NCc2cccs2)nnc1-c1cccs1	22%	0.3%	-3%	-1%[9.22 µM]	1%	-3%	7%	4%
Cn1c2ccccc2c(=O)n2c(=O)c3ccccc3cc12	·	-7.9%	·	-50%	-9%	-23%	·	·
CC1(C)Cc2c(sc3nc(-c4cccs4)n(N)c(=O)c23)CO1	?	-7.9%	-52%	-48%	-4%	7%	94%[14.3 µM]	-21%
O=C(/C=C/c1ccco1)NC(=S)Nc1ccc(C(=O)O)cc1	1%[46.1 µM]	·	19%	4%	·	1%	2%[46.1 µM]	-5%
Cc1cc(OC(C)C(=O)N(Cc2ccc(N(C)C)cc2)Cc2ccco2)ccc1Cl (stereo not given)	1%[46.1 µM]	-9.0%	-9%	·	4%	·	-4%[46.1 µM]	·
CCOC(=O)c1c(NC(=S)Nc2ccc(C)cc2)sc2c1CCC2	39%	-5.2%	-7%	2%	?	15%	3%	-9%
Cc1c(C(=O)Nc2ccccc2)sc2ncn(CC(=O)N3CCCCC3)c(=O)c12	-9%[46.1 µM]	·	10%	16%	·	3%	?	-2%
COc1cccc(Oc2nc3c(c(=O)n(Cc4ccccc4Cl)c(=O)n3C)n2C)c1	?	-1.4%	-24%	·	0%	·	19%[46.1 µM]	·
COc1ccc(Nc2c3ccccc3nc3ccccc23)cc1	?	·	?	-47%	·	-9%	?	9%
CCCN1C(=O)c2cc(C(=O)NC3CCCCCC3)ccc2C1O (stereo not given)	·	-2.1%	19%	-14%	-13%	1%	·	14%
CC(C)=CCN1CCNC(=O)C1CC(=O)NCc1nc(C)c(C)s1 (stereo not given)	-1%[46.1 µM]	·	20%	1%	·	1%	-12%[46.1 µM]	-12%
CCn1nc(C)c(C2C(C#N)=C(N)Oc3n[nH]c(C)c32)c1C (stereo not given)	-1%	-2.6%	1%	5%	2%	15%	1%	0%
Cc1ccccc1NC(=O)CN(C)S(=O)(=O)c1cccc2nsnc12	·	-1.9%	7%	·	-24%	·	28%[46.1 µM]	·
O=C(CSc1ncnc2c1nnn2Cc1ccccc1F)NCC1CCCO1 (stereo not given)	?	·	?	-8%	·	-2%	?	-21%
CCCNS(=O)(=O)c1cc2c(cc1Br)CCN2C(=O)CC	-19%[46.1 µM]	·	54%[activator]	·	·	·	9%[46.1 µM]	0%
Cc1cccc(N(C)S(=O)(=O)c2ccc3c(c2)NC(=O)CC(=O)N3)c1	?	-0.3%	-3%&-4%	·	7%	0%	-1%	-4%
O=C(Cc1ccccc1)NNC(=O)C1CCN(c2ncccn2)CC1	-10%[46.1 µM]	·	-4%	·	·	3%	-19%[46.1 µM]	-6%
CN(C)c1ccc(NC(=O)CSc2nnc(-c3cccs3)n2Cc2ccco2)cc1	-15%	-0.5%	13%	1%	-5%	8%	?	17%
O=C(COC(=O)Cc1ccc(Br)cc1)NC1CCCC1	2%[46.1 µM]	·	-9%	·	·	-8%	3%[46.1 µM]	-26%
Cc1nc2ccn(Cc3cccs3)c(=O)c2cc1C(=O)Nc1ccccc1	·	-7.9%	-14%	·	45%	·	3%[46.1 µM]	·
C[n+]1c(-c2ccccc2)c2cc(N)ccc2c2ccc(N)cc21	·	·	?	-56%	·	5%	·	-28%[18.4 µM]
O=C(N/N=C/c1cccc(OC2CSC2)c1)c1ccccc1O	?	-1.3%	-19%	-15%	10µM*	-3%	14%	-6%
Continuation.
SMILES	Marburg entry inh	Cruzain inh Det	2A StopGo	NS1 inh	Cruzain noTriton	SARS PLpro yeast	Lassa entry inh	RE007 growth inh
CCOCc1c(C(=O)Nc2ccc3nc(N4CCOCC4)sc3c2)oc2ccccc12	?	·	20µM*	·	·	7%	?	-3%
Cc1ccc(CNC(=O)c2cccc(-n3cnnn3)c2)cc1	-10%	0.6%	-23%	8%	-12%	0%	-21%[14.3 µM]	15%
Cc1cc(C)c(S(=O)(=O)NCC(c2ccc(N(C)C)cc2)N2CCOCC2)c(C)c1 (stereo not given)	·	-0.2%	26%	·	6%	·	-28%[46.1 µM]	·
CC(Sc1nc2c(c(=O)n(C)c(=O)n2C)n1Cc1cc2c(cc1Cl)OCO2)C(=O)O (stereo not given)	-12%	-0.3%	-23%	2%	-16%	4%	-3%	-10%
O=C(NCCN1CCN(C(=O)c2ccc(Br)cc2)CC1)c1ccc(Br)cc1	-1%[46.1 µM]	·	?	0%	·	·	-21%[46.1 µM]	-7%
CCOc1ccc(CCn2c3c(c(=O)[nH]c2=O)C(NC(=O)c2ccccc2)(C(F)(F)F)C(=O)N3)cc1OCC (stereo not given)	-14%[46.1 µM]	-1.5%	0%	·	3%	·	28%[46.1 µM]	·
COCCCn1c(Cc2csc(Nc3ccccc3)n2)nnc1SCC(N)=O	-1%	-6.6%	-18%	5%[9.22 µM]	3%	5%	0%	-12%
COc1ccc(CCNc2nc(-c3ccccc3OC)cc(C(F)(F)F)n2)cc1OC	?	-12%	0%	·	17%	·	22%[46.1 µM]	·
Cc1sc(NC(=O)c2ccccc2F)c(CN2CCCCC2C)c1C (stereo not given)	?	0.3%	36%[activator]	-10%	-5%	-8%	-6%	-22%
CSc1cccc(NC(=S)N2CCCN(Cc3ccc(F)cc3)C2)c1	6.3µM*	·	-3%	·	·	-1%	?	-5%
CN(C)C=Nc1ncc2c3ccccc3n(Cc3ccccc3)c2c1C#N	3%	-30%	-14%	-57%	?	-2%	-2%	4%
CCOc1ccc2[nH]c3c(NCCO)ncnc3c2c1	·	·	13%	-1%	·	-1%	·	0%
CCOC(=O)CN1CC23C=CC(O2)C(C(=O)NCc2ccc(C)cc2)C3C1=O (stereo not given)	·	3.7%	?	2%	-13%	-3%	·	-4%
N#CC1=C(N)SC(N)=C(C#N)C1CCC1CCCCC1	3%	-20%	·	-33%	?	-31%	·	·
CCOc1ccc(OCc2cccc(C(=O)Nc3ccc(CN4CCCCC4)cc3)c2)cc1	6.5µM*	-13%	0%	-6%	?	-8%	?	14%
COCC(=O)Nc1c(C(=O)Nc2ccc3c(c2)OCO3)oc2ccccc12	·	·	-3%	8%	·	-8%	·	0%
O=C(NCCCN1CCCC1=O)c1cccc(C(F)(F)F)c1	2%	-5.9%	15%	3%	-6%	0%	0%	3%
O=C(CCC(=O)NC1CCCCC1)Nc1cccnc1	·	·	4%	5%	·	0%	·	6%
CN(CC(=O)N1CCc2ccccc21)S(=O)(=O)c1cccs1	11%	4.3%	17%	-9%	-2%	-4%	?	-9%
COc1ccc(S(=O)(=O)N2CCC3(CC2)OCCN3S(=O)(=O)c2cccs2)cc1	26%	·	29%	·	·	0%	2%	8%
CCc1c(C)nc(SCC(=O)Nc2c(C)n(C)n(-c3ccccc3)c2=O)[nH]c1=O	4%	7.4%	-6%	-24%	-11%	4%	-12%	8%
COc1ccc(NC(=O)CSc2nc3ccccc3n2-c2ccccc2)c([N+](=O)[O-])c1	12µM*	3.6%	-26%	6%	-1%	-3%	?	16%
COc1ccc(S(=O)(=O)N2CCCCCC2)cc1NC(=O)CN1C(=O)NC(C)(c2ccccc2)C1=O (stereo not given)	?	·	-9%	·	·	2%	-1%	-7%
COc1ccc(NC(C)=[N+](C)CCNS(=O)(=O)c2ccc(Cl)cc2)cc1	·	·	-4%	9%	·	-7%	·	-4%
CC(Sc1nc(-c2ccccc2)cc(C(F)(F)F)n1)C(=O)Nc1sc2c(c1C(N)=O)CCC2 (stereo not given)	-13%	-6.6%	-15%	?	-6%	?	1%	24%
Going on with the list.
SMILES	Marburg entry inh	Cruzain inh Det	2A StopGo	NS1 inh	Cruzain noTriton	SARS PLpro yeast	Lassa entry inh	RE007 growth inh
CCOC(=O)CSc1nnc(Cc2cc(=O)[nH]c(=O)[nH]2)n1-c1cccc(OC)c1	7%	6.6%	-21%	?	-4%	4%	0%	21%
COc1ccc(-c2nnn(-c3ccc(Cl)cc3Cl)c2N)cc1	·	·	-1%	1%	·	-1%	·	-7%
CC(C)n1cc(/C=N/Nc2ccc(C(=O)O)cc2)c2ccccc21	5%[46.1 µM]	·	3.5µM*	-13%	·	-3%	-23%[46.1 µM]	-26%
CCC(C)n1cnc2c(c1=O)c1nc3ccccc3nc1n2Cc1ccccc1OC (stereo not given)	2%	-6.0%	-21%	-66%	?	11%	-7%	0%
Cc1ccc(NC(=O)CSc2nnc3ccc(-c4ccncc4)nn23)cc1	-16%	·	0%	·	·	2%	6%	20%
Cc1ccc2c(c1)N(Cc1ccccn1)C(=O)C(C)O2 (stereo not given)	23%	1.3%	-13%	-3%	-6%	-1%	20%	-5%
CSc1nc2ccc(S(=O)(=O)N3CCCC3)cc2s1	-10%	3.1%	?	-88%	-5%	-4%	14%	10%
Cc1nc2nc[nH]n2c(=O)c1NS(=O)(=O)c1ccc(C(C)(C)C)cc1	55%[46.1 µM]	·	-3%	·	·	-5%	23%[46.1 µM]	7%
COc1ccc(-c2nnc(NC(=O)C3CC3)o2)cc1	?	·	29%	·	·	0%	?	4%

Compound profiles (already shown). Values in the order: Marburg entry inh	Cruzain inh Det	2A StopGo	NS1 inh	Cruzain noTriton	SARS PLpro yeast	Lassa entry inh	RE007 growth inh
Entry for `COc1ccc(CCNc2nc(-c3ccccc3OC)cc(C(F)(F)F)n2)cc1OC` : ?	-12%	0%	·	17%	·	22%[46.1 µM]	·
Entry for `O=C(/C=C/c1ccco1)NC(=S)Nc1ccc(C(=O)O)cc1` : 1%[46.1 µM]	·	19%	4%	·	1%	2%[46.1 µM]	-5%

Compound activity (PubChem BioAssay)
